E coli growth – inhibitors of Escherichia coli growth; OD600, 23 h; stronger effect = lower value; OD600 absorbance (test concentration not listed); hit rate 0.21% among 330,000; AID 1053175;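 active = OD600 absorbance below the run mean of sample wells minus 3.6 SD, in any replicate, cut at about 0.56 in these data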;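 note: stock transfer was 300 nL into about 60 µL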
UCH37 inh – blocks the human deubiquitinase UCH37 | purified proteasome/UCH37, Ub-AMC cleavage fluorescence | inhibition, % (concentration not given with the values) | hit rate 0.33% among 330,000 | AID 588478;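 active = mean of two replicates above 20%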;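 note: 0% = compound-free wells with enzyme and 100% = wells lacking proteasome; stock transfer was 100 nL into about 20 µL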
Target sequence (Q9Y5K5 whole entry, looked up): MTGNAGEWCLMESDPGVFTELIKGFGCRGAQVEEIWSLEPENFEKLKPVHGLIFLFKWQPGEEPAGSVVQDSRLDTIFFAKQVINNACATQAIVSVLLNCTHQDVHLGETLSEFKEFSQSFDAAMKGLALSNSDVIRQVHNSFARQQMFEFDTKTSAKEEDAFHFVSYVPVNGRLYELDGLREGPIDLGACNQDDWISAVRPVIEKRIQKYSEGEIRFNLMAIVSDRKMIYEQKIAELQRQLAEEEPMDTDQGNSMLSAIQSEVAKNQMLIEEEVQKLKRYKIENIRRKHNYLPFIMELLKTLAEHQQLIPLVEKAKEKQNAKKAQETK
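Test system – human UCH37 enzyme supplied as purified proteasome complex · Incubation – 30 min preincubation with enzyme, 25 min cleavage at room temperature · Detection – AMC fluorescence from Ub-AMC cleavage, excitation 355 nm, emission 460 nm · Benchmarks – no-proteasome wells (full inhibition) and compound-free wells (no inhibition)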
HNF4A DNA FP – change in binding of human HNF4 alpha to DNA; HNF4a-FITC DNA binding, fluorescence polarization, 1 h; hit rate 0.3% among 360,000; activity change, % at 10 µM; in the data active = activity change above about 30%, passing the limit was not always enough;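 note: controls were the assay level and a saturating level of protein; the project sought stronger binding though the title names inhibitors; some compounds called inactive have numbers as strong as hits; positive values seem to mean higher polarization but the record does not say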
ALR inh – inhibitors of human sulfhydryl oxidase ALR; P55789; purified ALR, DTT oxidation, H2O2 HRP-luminol luminescence; inhibition, % (no concentration beside the values); hit rate 3.8% among 290,000;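 active = mean and each replicate at 75% or more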;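 note: stock transfer was 7.5 nL into about 7.5 µL; 0% = neutral wells and 100% = wells with inactivated enzyme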
Target sequence (P55789 whole entry, looked up): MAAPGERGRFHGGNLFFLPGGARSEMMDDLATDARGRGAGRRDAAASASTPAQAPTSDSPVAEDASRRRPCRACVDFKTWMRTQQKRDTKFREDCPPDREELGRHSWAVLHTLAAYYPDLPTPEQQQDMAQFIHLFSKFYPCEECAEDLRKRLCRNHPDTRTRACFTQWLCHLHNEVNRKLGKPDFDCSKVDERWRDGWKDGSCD
Ecoli rRNA inh – inhibits bacterial ribosomal RNA function over humanized ribosomes; GFP signal change (wild-type ribosome), % (no concentration beside the values); E. coli WT GFP vs humanized-ribosome RFP mutants, fluorescence, 24 h; stronger effect = lower value; DMSO median 0, no signal -100; hit rate 1.6% among 350,000;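 active = significant combined selectivity score with lowered wild-type GFP, culture density cut under 30%, mutant RFP and density less affected; inactive = any of these conditions unmet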; note: one replicate is shown; some compounds called inactive have numbers as strong as hits
FGF22 binding – shifts melting point of recombinant human FGF22. recombinant FGF22 thermal shift, SYPRO orange fluorescence; percent of sucrose octasulfate shift, DMSO zero. Q9HCT0. hit rate 1.5% among 340,000. calls only at 9.99 µM. AID 651658;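 active = melting point raised past a set limit in the mean and every replicate; three in four hits are not shown here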
Beta2AR agonist – human beta-2 adrenergic receptor agonism by FAP. response, % (test concentration not listed). Am2.2-beta2AR cells, FAP receptor internalization, flow cytometry; reference of the scale not given here. hit rate 0.43% among 340,000;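 active = response above a set limit, near 3 SD of response in nonfluorescent compounds, cut at about 42% in these data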;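 note: stock transfer was 100 nL into about 11 µL; a reference agonist was the positive control; negative values mostly stem from fluorescent compounds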
Target sequence (P07550 whole entry, looked up): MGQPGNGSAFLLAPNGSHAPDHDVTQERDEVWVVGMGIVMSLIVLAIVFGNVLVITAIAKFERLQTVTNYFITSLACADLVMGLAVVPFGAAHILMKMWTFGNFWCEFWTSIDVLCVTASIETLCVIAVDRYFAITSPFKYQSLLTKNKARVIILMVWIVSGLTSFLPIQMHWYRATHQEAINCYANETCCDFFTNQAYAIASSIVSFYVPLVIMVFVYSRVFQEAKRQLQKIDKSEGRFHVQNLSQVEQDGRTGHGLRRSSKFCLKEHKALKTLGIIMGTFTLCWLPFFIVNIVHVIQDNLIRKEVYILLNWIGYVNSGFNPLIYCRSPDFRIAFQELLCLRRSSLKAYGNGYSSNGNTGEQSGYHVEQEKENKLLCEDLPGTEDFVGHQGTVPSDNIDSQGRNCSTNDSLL
Ecoli rRNA inh OD600 – recorded beside Ecoli rRNA inh, whose call it bears; OD600 change, %; measured here: OD600 growth;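 optical density of the mix in the first replicate; 0 = DMSO median and -100 = no signal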
Ecoli rRNA inh RFP – recorded beside Ecoli rRNA inh, whose call it bears; RFP signal change, %; measured here: RFP humanized mutant strains;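 first replicate; 0 = DMSO median and -100 = no signal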
* = called active by the depositor; i = inactive; . = no result given; & = joins results of further samples. The list is partial (hit frequency here may not be typical).

structure	E coli growth	UCH37 inh	HNF4A DNA FP	ALR inh	Ecoli rRNA inh	Ecoli rRNA inh OD600	Ecoli rRNA inh RFP	FGF22 binding	Beta2AR agonist
Cc1ccc(CNC(=O)COC(=O)CCC(=O)c2cccs2)cc1	0.74	4.8	0.2	0	1	5	4.3	i	-2
Nc1cc(C(F)(F)F)ccc1C(=O)O	.	.	-3.3	97*	4	4	1.4	i	2
Cc1ccc(NC(=O)Cn2nnc(C(=O)NCc3ccccc3)c2N)cc1C	0.65	6.4	-1.6	-8	16	20	1.0	.	6
Cc1ccc(C(C[N+](=O)[O-])Sc2ccc(N)cc2)cc1 (stereo not drawn)	0.52	13	-1.9	.	.	.	.	i	70*
Cc1ccc(S(=O)(=O)c2c(C)nn(C(C)(C)C)c2OC(=O)c2ccco2)cc1	0.67	1.5	-4.3	-1	.	.	.	.	5
Cc1ccc(-c2csc(NC3OC(=O)c4ccccc43)n2)cc1 (stereo not drawn)	.	.	-3.0	35	-30	-36	-3.7	i	3
CCCCCC(=O)NC(NC(=S)N1CCOCC1)C(Cl)(Cl)Cl (stereo not drawn)	0.71	-2.5	-3.0	1	.	.	.	.	-6
[O-][n+]1onc2c1CCc1c-2nc(-c2ccccc2)n1OCc1ccccc1	0.76	4.6	1.9	-1	.	.	.	.	-10
CCOc1ccc(C(C(=O)NCCC(C)C)N(CCO)C(=O)c2snc(C(N)=O)c2N)cc1 (stereo not drawn)	.	.	2.6	.	10	0	5.7	i	-10
CC1CN(C(=O)CCC(=O)NCc2ccc(Cl)cc2)c2ccccc2O1 (stereo not drawn)	0.78	3.3	2.6	-3	3	-15	-1.3	i	0
CCOC(=O)c1ccc(S(=O)(=O)N2CCN(C(=O)c3cc4ccccc4o3)CC2)cc1	0.72	2.0	-1.4	.	3	4	-4.0	i	7
Cc1nc2cc(NCc3cccs3)ccc2n1C	0.64	-2.3	4.2	84*	3	2	0.0	i	-5
Cc1coc2c(C)c3oc(=O)c(CCC(=O)NCCCN4CCOCC4)c(C)c3cc12	0.69	-36	9.7	.	-17	-14	9.5	i	1
C=CCn1c(SCC(N)=O)nc2sc3c(c2c1=O)CCC3	0.66	2.5	-3.5	44	3	-3	-0.4	i	9
c1cc(CNCCN2CCNCC2)ccn1	0.65	0.5	2.0	.	13	28	0.8	i	-2
Cc1cc(C)cc(C(=O)NC(CC(N)=O)c2ccc(NCCN3CCOCC3)c([N+](=O)[O-])c2)c1 (stereo not drawn)	.	.	3.1	1	7	10	5.4	i	1
Cc1ccc2c(Cn3cc(C(F)(F)F)cc(Cl)c3=O)cc(=O)oc2c1	0.71	-2.6	.	0	.	.	.	.	.
N#C/C(=C\c1ccccc1OCc1ccc(C(=O)O)cc1)c1ccccc1	0.65	0.9	-1.7	8	-29	-34	-7.3	i	-3
CC(C)(C)c1ccc(C(=O)NNC(=O)c2cccc(Br)c2)cc1	0.73	3.3	0.9	-3	.	.	.	.	0
CCOC(=O)NC(Nc1ccc(OC)cc1)(C(F)(F)F)C(F)(F)F	0.64	-0.5	2.4	-5	.	.	.	.	0
CCOCCCNC(=S)N1CCC(C(=O)c2ccc(C)cc2)CC1	0.64	2.4	-2.6	-5	-11	-10	3.3	i	-195
CCC(c1nnnn1C1CCCCC1)N1CCN(C(=O)c2ccco2)CC1 (stereo not drawn)	0.71	5.9	-3.1	-3	6	9	2.0	i	-7
CC(=O)c1cccc(OCc2cc(C(=O)N3CCSCC3)no2)c1	0.68	1.9	5.4	-1	-4	6	3.0	i	-11
O=C(COC(=O)CNC(=O)c1ccccc1)NC1CCCCC1	0.67	2.5	0.4	.	3	6	1.2	i	-3
COCCn1c(SCC(=O)Nc2cc(Cl)ccc2OC)nc2c(c1=O)SC(C)C2 (stereo not drawn)	0.74	4.9	0.2	-14	2	-24	0.5	i	-9
CCCCC(=O)N(C)c1c(CC)nc2c(OCC(N)=O)cccn12	.	.	0.7	.	14	14	-0.7	i	.
CC(=O)Nc1ccc2c(CSc3nncs3)cc(=O)oc2c1	0.63	-23	-4.0	-16	4	2	0.0	i	2
CCC(=O)Nc1ccc(Cl)c(-c2nc3ncccc3o2)c1	0.62	-4.7	1.2	-2	-26	-26	-3.9	i	-8
O=C(NC(=S)Nc1ccc([N+](=O)[O-])cc1O)C1CCCCC1	0.64	2.9	4.2	-11	-14	-15	-5.0	i	7
COc1cccc(OC)c1C(=O)O/N=C(\N)c1ccncc1	0.64	2.9	2.8	-6	15	1	0.4	i	10

Pulled by structure from the entries so far (2):
structure	E coli growth	UCH37 inh	HNF4A DNA FP	ALR inh	Ecoli rRNA inh	Ecoli rRNA inh OD600	Ecoli rRNA inh RFP	FGF22 binding	Beta2AR agonist
COCCn1c(SCC(=O)Nc2cc(Cl)ccc2OC)nc2c(c1=O)SC(C)C2 (stereo not drawn)	0.74	4.9	0.2	-14	2	-24	0.5	i	-9
CCCCCC(=O)NC(NC(=S)N1CCOCC1)C(Cl)(Cl)Cl (stereo not drawn)	0.71	-2.5	-3.0	1	.	.	.	.	-6

Full records from above.
Record of Cc1ccc(-c2csc(NC3OC(=O)c4ccccc43)n2)cc1 (stereo not drawn) = E coli growth: .; UCH37 inh: .; HNF4A DNA FP: -3.0; ALR inh: 35; Ecoli rRNA inh: -30; Ecoli rRNA inh OD600: -36; Ecoli rRNA inh RFP: -3.7; FGF22 binding: i; Beta2AR agonist: 3
Record of CC1CN(C(=O)CCC(=O)NCc2ccc(Cl)cc2)c2ccccc2O1 (stereo not drawn) = E coli growth: 0.78; UCH37 inh: 3.3; HNF4A DNA FP: 2.6; ALR inh: -3; Ecoli rRNA inh: 3; Ecoli rRNA inh OD600: -15; Ecoli rRNA inh RFP: -1.3; FGF22 binding: i; Beta2AR agonist: 0

Going on with the list.
structure	E coli growth	UCH37 inh	HNF4A DNA FP	ALR inh	Ecoli rRNA inh	Ecoli rRNA inh OD600	Ecoli rRNA inh RFP	FGF22 binding	Beta2AR agonist
O=C(Nc1ccc(C(=O)N2CCOCC2)cc1)Nc1ccc(Cl)cc1Cl	0.62	2.8	-4.5	15	8	8	0.4	i	3
c1ccc(CSc2ccc(-c3ccccn3)nn2)nc1	0.69	4.3	-0.6	-1	-31	-33	-5.4	i	-8
CCN(C(=O)Cn1ccc(C(F)(F)F)n1)c1c(N)n(Cc2ccccc2)c(=O)[nH]c1=O	0.65	-1.3	-2.4	.	9	16	-1.9	i	2
CCCC(=O)Nc1ccc(C(=O)/C=C/c2ccc(SC)cc2)cc1	0.74	-3.6	0.0	6	.	.	.	.	2
COc1ccc(C2CC(c3ccc(Br)cc3)=NN2C(=O)c2cccnc2)cc1 (stereo not drawn)	.	5.0	1.6	-7	.	.	.	.	-14
CCNC(=S)NCc1ccco1	0.68	3.3	-0.1	-44	.	.	.	.	-1
Cc1noc(C)c1CCC(=O)O	0.65	-0.4	3.5	-10	3	7	-1.4	i	-2
Clc1ccc(N2CCN(c3ncnc4c3oc3ccccc34)CC2)cc1	0.69	-65	1.4	-1	.	.	.	.	7
CCOCCc1nnc(NC(=O)Cc2ccccc2)s1	0.69	2.0	3.3	-13	.	.	.	.	-3
O=C(Cn1ccc2ccccc2c1=O)NCC(=O)Nc1ccc(F)cc1F	0.69	-1.4	-1.9	0	1	9	-4.3	i	-3
COc1ccc(NC(=O)C2C3C=CC(C3)C2C(=O)NCc2ccco2)c(OC)c1 (stereo not drawn)	0.75	-0.2	-1.5	7	.	.	.	.	-4
NC(=O)c1cccc(-c2ccnc3c2CC(C(=O)NCc2ccc(F)c(F)c2)O3)c1 (stereo not drawn)	.	.	-4.0	.	-13	-13	-1.9	i	.
CCOC(=O)c1ccc(NC(=O)COc2ccc(S(=O)(=O)N3CCCC3)cc2)cc1	0.73	1.9	0.5	-2	-9	-23	1.4	i	98*
CCOC(=O)C1=C(C)N(C)C(=S)NC1c1ccccc1Cl (stereo not drawn)	0.72	2.5	-1.0	1	.	.	.	.	0
O=C(OCC(=O)C12CC3CC(CC(C3)C1)C2)c1cnccn1	0.67	0.4	-1.9	-3	1	8	0.2	i	2
CC(C)(C)c1cc(CN2CCCC(O)C2)c(O)c(C(C)(C)C)c1 (stereo not drawn)	0.65	2.1	2.3	35	.	.	.	.	-6
CCOC(=O)c1cnn(-c2cccc(Cl)c2)c1N	0.71	0.4	1.7	-15	.	.	.	.	-7
COC(=O)N(C)C[C@@H]1OCc2cn(nn2)CCCC(=O)N([C@@H](C)CO)C[C@H]1C	.	.	0.8	.	9&1	11&4	1.9&-1.5	i	.
Cn1nnnc1SCC(=O)N1CCc2ccccc2C1	0.71	8.8	3.2	-9	.	.	.	.	1
O=C1SCCc2c1n(Cc1ccccc1)c1ccccc21	0.72	0.5	-0.1	-4	.	.	.	.	-3
CCOC(=O)c1cnc(SCC(=O)Nc2nnc(CC)s2)nc1N	0.71	3.3	2.9	-3	14	12	1.8	i	-15
Cc1ccccc1-n1nc2c(c1NC(=O)C1CCCC1)CS(=O)(=O)C2	0.69	3.7	-2.7	0	6	8	-1.1	i	7
Cc1ccc(CNCCCSc2ncccn2)cc1	0.68	-0.1	2.1	1	14	17	4.2	i	-6
CCN(CCNC(=O)CS(=O)(=O)Cc1nc(-c2cccc(OC)c2)oc1C)c1ccccc1	0.67	3.8	-2.8	30	.	.	.	.	-3
COc1ccc(NC(=O)CCSc2ccc(F)cc2)cc1	0.67	1.3	-0.8	-1	-4	-11	3.6	i	1
Cc1ccc(-n2nc(C)c(C(=O)O)n2)c(C)c1	0.68	-13	3.6	-3	.	.	.	.	14
Cc1[nH]c2ccc(F)cc2c(=O)c1SC(F)(F)C(F)F	0.69	1.6	2.0	1	.	.	.	.	-14
CCN1CCN(C(c2cccs2)C(C)NC(=O)c2cccc(OC)c2OC)CC1 (stereo not drawn)	0.67	2.6	1.8	-12	10	6	-3.2	i	-8
S=C(NCCOCCOCCNC(=S)Nc1ccccc1)Nc1ccccc1	0.7	2.9	-1.9	.	.	.	.	i	-5

Part of the list above, as labelled records:
CCN(C(=O)Cn1ccc(C(F)(F)F)n1)c1c(N)n(Cc2ccccc2)c(=O)[nH]c1=O
  E coli growth = 0.65 | UCH37 inh = -1.3 | HNF4A DNA FP = -2.4 | ALR inh = . | Ecoli rRNA inh = 9 | Ecoli rRNA inh OD600 = 16 | Ecoli rRNA inh RFP = -1.9 | FGF22 binding = i | Beta2AR agonist = 2
CCCC(=O)Nc1ccc(C(=O)/C=C/c2ccc(SC)cc2)cc1
  E coli growth = 0.74 | UCH37 inh = -3.6 | HNF4A DNA FP = 0.0 | ALR inh = 6 | Ecoli rRNA inh = . | Ecoli rRNA inh OD600 = . | Ecoli rRNA inh RFP = . | FGF22 binding = . | Beta2AR agonist = 2
COc1ccc(C2CC(c3ccc(Br)cc3)=NN2C(=O)c2cccnc2)cc1 (stereo not drawn)
  E coli growth = . | UCH37 inh = 5.0 | HNF4A DNA FP = 1.6 | ALR inh = -7 | Ecoli rRNA inh = . | Ecoli rRNA inh OD600 = . | Ecoli rRNA inh RFP = . | FGF22 binding = . | Beta2AR agonist = -14

Assay outcomes: PubChem, several laboratories
